HCMV UL50-53 inh: inhibitors of HCMV UL50-UL53 nuclear egress complex interaction | hit rate 0.15% among 190,000 | HTRF UL50-UL53 interaction, normalized percent inhibition | AID 1918969 | inhibition, % (test concentration not listed);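 active = both replicates at 50% or more, plus weaker picks with an unusually low signal ratio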;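 also: stock transfer was 100 nL into about 20 µL; 0% = negative control wells and 100% = wells with untagged competitor protein; inactives centre near -12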
GIV Gai3 FP: blocks GIV peptide binding to rat Galpha-i3; P08753; Galpha-i3/FITC-GIV peptide fluorescence polarization, 90 min; hits give low values; scaled: aluminum fluoride 0%, vehicle 100%; percent of control (FP), % (test concentration not listed); hit rate 0.42% among 210,000;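 active = replicate mean at 85% of control or lower, very high polarization wells dropped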;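 also: wells of about 15 µL received 100 nL stock; the first replicate is given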
Target sequence (P08753 whole entry, looked up): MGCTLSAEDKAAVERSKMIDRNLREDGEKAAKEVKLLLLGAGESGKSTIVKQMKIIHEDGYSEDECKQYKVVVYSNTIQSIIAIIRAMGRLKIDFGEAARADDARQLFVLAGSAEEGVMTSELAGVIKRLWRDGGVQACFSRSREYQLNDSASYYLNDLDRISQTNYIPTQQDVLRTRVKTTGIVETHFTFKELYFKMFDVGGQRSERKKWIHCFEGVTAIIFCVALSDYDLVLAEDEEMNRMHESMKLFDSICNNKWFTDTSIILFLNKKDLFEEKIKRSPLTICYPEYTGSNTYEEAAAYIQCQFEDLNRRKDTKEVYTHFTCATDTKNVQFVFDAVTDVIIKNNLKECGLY
Sa growth inh: inhibitors of Staphylococcus aureus growth at 42 °C; S. aureus RN4220 growth, OD600, 20 h; hits give low values; relative growth, % (concentration not given with the values); hit rate 0.53% among 170,000; AID 720641;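 active = growth at 42 °C up to 50% and 20 or more points under that at 30 °C, or under 10% at both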;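 also: 300 nL library stock went into each well; scaled to the means of positive and negative controls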
Sa growth inh second temp: further read-out of Sa growth inh, marked with its call; relative growth, %; measured here: growth at 30 °C;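 optical density after 20 h as mean of two plates; 100% = untreated growth and lower means inhibition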
* = called active by the depositor; nt = no result given; & = joins results of further samples.

SMILES	HCMV UL50-53 inh	GIV Gai3 FP	Sa growth inh	Sa growth inh second temp
O=C1CC(CSc2ccc(Cl)cc2)=NN1c1nc2ccccc2s1	nt	103	105	34
NC(=O)CNCCC(c1ccccc1)c1ccccc1	5&-9	95	nt	nt
O=C(NCCO)c1nnc(-c2cccc(Cl)c2)o1	nt	104	107	92
Cn1c(=O)c2c(nc(CN3CCN(C(=O)c4ccco4)CC3)n2Cc2ccccc2F)n(C)c1=O	nt	100	95	96
CC(/C(O)=C(\C#N)c1nc2ccccc2[nH]1)N1C(=O)c2ccccc2C1=O (stereo unspecified)	nt	114	107	92
O=C(O)c1cc2ccccc2c(=O)s1	-62	99	109	102
CN(C)c1ccc(CNC(=O)CN2C(=O)CCn3nc(-c4cn(C)c5ccccc45)cc32)cc1	nt	105	104	87
CCOc1cc(CNn2cnnc2)ccc1OCC(=O)NC1CCCCC1	-6	107	99	92
O=C(Cn1ncc(Cl)c(Cl)c1=O)N1CCN(Cc2ccccc2)CC1	-65	nt	88	96
Cc1csc(C(C#N)C(=O)CSc2nnnn2C2CCCC2)n1 (stereo unspecified)	-31	nt	91	78
Cc1ccc(-c2nc3ncccn3c2NC(=O)C2CC2)cc1	nt	103	88	85
CCc1[nH]nc2c1C(c1ccc(F)c(Oc3ccccc3)c1)C(C#N)=C(N)O2 (stereo unspecified)	-17	105	104	69
O=C(NCCCN1CCOCC1)C1CCCN(c2nc3ccccc3n(Cc3ccccc3)c2=O)C1 (stereo unspecified)	-26	102	nt	nt
OCCN1CCN(c2ncnc3c2cnn3-c2cccc(Cl)c2)CC1	nt	99	114	84
CCOc1cc(CNC(=O)NC2COc3ccccc3C2)cc(OCC)c1OCC (stereo unspecified)	nt	101	102	100
COC(=O)c1cc(C)nc(Sc2ccccc2N)n1	-2	106	115	76
COc1ccc(CNc2nonc2C)cc1	-23	104	97	79
O=C(Nc1cc(OCC(F)(F)F)cc(OCC(F)(F)C(F)F)c1)c1ccco1	-8	100	106	97
COc1ccccc1Nc1ncnc(-n2cccc2)n1	-4	101	85	93
O=S(=O)(NCc1ccccc1)c1cnc[nH]1	-5	nt	101	87
Nc1c(Cl)ncnc1NCCO	-3	102	120	94
COc1ccc(-c2noc(CSCC(=O)N3CCNC3=O)n2)cc1	-2	107	nt	nt
CCOC(=O)c1sc2nc(C)nc(NCCCN3CCOCC3)c2c1C	-6	102	nt	nt
Cc1[nH]n2c(=O)c3c(nc2c1-c1ccc(Cl)cc1)CCC3	-21	102	81	60

Arranged by SMILES length (high to low): some entries from above.
SMILES	HCMV UL50-53 inh	GIV Gai3 FP	Sa growth inh	Sa growth inh second temp
O=C(NCCCN1CCOCC1)C1CCCN(c2nc3ccccc3n(Cc3ccccc3)c2=O)C1 (stereo unspecified)	-26	102	nt	nt
OCCN1CCN(c2ncnc3c2cnn3-c2cccc(Cl)c2)CC1	nt	99	114	84
COc1ccc(CNc2nonc2C)cc1	-23	104	97	79

(cont.)
SMILES	HCMV UL50-53 inh	GIV Gai3 FP	Sa growth inh	Sa growth inh second temp
COc1ccc(-c2noc(-c3cccc(NC(=O)C4CC(=O)N(c5ccccc5OC)C4)c3)n2)cc1 (stereo unspecified)	4	112	nt	nt
COc1ccc(S(=O)(=O)/N=C2/NC(=O)/C(=C\c3ccc(OC)c(OC)c3)S2)cc1	-42	109	nt	nt
COc1ccc(-n2c(/C=C/c3cccc(C(F)(F)F)c3)nc3ccccc3c2=O)cc1Cl	nt	106	124	90
C/C(=N/n1cnnc1)c1ccccc1	-33	nt	111	92
CCC1C2=C(CCCC2=O)NC2=C1C(=O)CCC2	-8	105	115	105
COc1ccc(N2CCN(c3csc4ccc(Cl)cc4c3=O)CC2)cc1	nt	105	100	90
Cc1cccc(NS(=O)(=O)c2ccc3c(c2)oc(=O)n3C)c1	nt	103	107	89
CCC1CCCCN1C(=O)CSc1nc2c(c(=O)n1C)SC(C)C2 (stereo unspecified)	-30	107	98	73
N#Cc1c[nH]n2c(=O)cc(Cc3ccccc3)nc12	1	102	106	90
CCSc1nnnn1-c1cccc(C(=O)O)c1	nt	97	82	91
Cc1cc(C)nc(NS(=O)(=O)c2ccc(NC(=O)NC(=O)N(C)S(C)(=O)=O)cc2)n1	-11	104	nt	nt
CCc1cccc(NC(=O)Cn2cc(S(=O)(=O)N3CCCC3)c(S(=O)(=O)N3CCCC3)c2)c1	-18	109	100	70
Cc1ccccc1C1C2=C(CCCC2=O)OC2=C1C(=O)CCC2	-16	101	nt	nt
CN(C(=O)Cn1c(SCc2cccc(F)c2)nc2ccncc21)c1ccccc1	2	99	117	88
Cc1ccc(NC(=O)C(=O)NCC(c2cccnc2)N2CCN(C)CC2)cc1C (stereo unspecified)	-8	98	107	99
Cc1cc(C)c(Cn2c(=O)n(-c3ccccc3Cl)c(=O)c3c(C)c(C(=O)N(C)C)sc32)c(C)c1	nt	103	96	85
CSc1ncc(Cl)c(C(=O)Nc2c(C(=O)Nc3ccc(C)cc3)oc3ccccc23)n1	-8	103	96	91
CCOc1ccc(NC(=O)Cn2c(=O)n(Cc3ccc4c(c3)OCO4)c(=O)c3ccc(C(=O)NC4CCCCC4)cc32)cc1	-16	104	101	87
S=C(Nc1cccnc1)N1CCc2ccccc21	-11	nt	113	79
CCCC(=O)Nc1ccc(Nc2cc(N(C)C)nc(C)n2)cc1	-32	101	nt	nt
O=C(Oc1c(-c2ccccc2)c(=O)n2c3c(cccc13)CC2)c1ccccc1	-8	120	102	81
CCn1c(O)c(C=Nc2ccc(C)cc2)c(=O)n(CC)c1=S	-14	nt	107	96
COc1cc(OC)c(N(C)C(=O)Nc2cn(CC(C)C)c(=O)c3ccccc23)cc1Cl	nt	96	92	85
CCOC(=O)C1CCN(C=Nc2cc(C)on2)CC1	-22	nt	85	93
Cc1ccc(F)cc1NC(=O)Cn1c(=O)nc(-c2ccccc2F)c2cc(Cl)ccc21	nt	101	91	88
Cc1ccccc1C(OCC(O)CN(C)C1CCN(C)CC1)c1ccccc1 (stereo unspecified)	18	nt	128	107
Cc1cc(Cl)ccc1N1C(=O)c2cc3ccsc3n2CC1(C)C(=O)NC1CCCC1 (stereo unspecified)	-39	106	nt	nt
CCC(CC)c1nnc(N)s1	-4	nt	97	90
O=C(COc1ccc(Cl)cc1)n1nnc2ccccc21	-15	nt	100	94
Cc1cc(C)n(-c2ncc(S(=O)(=O)C(C)(C)C)c(N)n2)n1	-22	105	94	91
O=C(/C=C/c1ccccc1)Nc1ccc(N2CCN(c3ccc(C(F)(F)F)cn3)CC2)nc1	-27	107	99	88
COc1cc([N+](=O)[O-])ccc1-c1ccc(/C=C2/C(=O)NC(=O)N(c3ccccc3)C2=O)o1	-34	108	nt	nt
N/C(=N\O)C(c1ccccc1)c1ccccn1 (stereo unspecified)	-3	104	99	103
Cn1c(C(O)c2ccc3c(c2)OCO3)nc2ccccc21 (stereo unspecified)	-36	nt	117	82
O=C1c2ccccc2C(=O)N1c1ccc2[nH]c(=S)sc2c1	-13	101	79	64
Cc1nc(SCC(=O)N2CCCC2c2ccc3c(c2)OCCCO3)c(C#N)c(C)c1C (stereo unspecified)	10	nt	84	94
O=C(Cn1ncc2c1-c1ccccc1OC2)Nc1cccnc1	5	102	103	82
COc1ccc(OCC(O)CNC(=O)c2cc(C(C)(C)C)nn2C)cc1 (stereo unspecified)	-14	99	109	89
O=C(Cn1c(=O)n(CC2CCCO2)c(=O)c2sc3ncccc3c21)NC1CCCC1 (stereo unspecified)	-65	107	nt	nt
COc1ccc(C(=O)N2CC(=O)Nc3ccccc32)cc1S(=O)(=O)NCc1ccncc1	-5	nt	94	87
COc1ccc2c(CNCc3ccc(C)o3)c(C(=O)O)n(Cc3ccccc3)c2c1	nt	100	86	86
O=C(CN(Cc1ccco1)C(=O)Cc1ccccc1F)Nc1ccccc1C(F)(F)F	-13	nt	90	96
CCOc1ccc(N2CC(C)Cn3c2nc2c3c(=O)[nH]c(=O)n2C)cc1 (stereo unspecified)	1	94	nt	nt
O=C(Nc1ccccc1)c1ccc2c(c1)C(=O)N(CCC1=CCCCC1)C2=O	nt	106	91	97
COc1ccccc1CNCCCCCCNCCCCCCCCNCCCCCCNCc1ccccc1OC	-24	95	nt	nt
O=C(O)COCC(=O)Nc1ccc(C(F)(F)F)cn1	-10	99	101	84
Cc1ccc(-n2nc(C)c3c(C)cc(=O)[nH]c32)cc1	-5&-2	102&107	116	82
COc1ccccc1N(Cc1cc2cccc(C)c2[nH]c1=O)C(=O)c1cccc(Cl)c1	2	111	92	95
CCOc1ccc(NC(=O)c2nn(-c3cccc(Cl)c3)ccc2=O)cc1	-3	100	nt	nt
CCOC(=O)c1c(-c2cccs2)csc1NC(=O)CSc1ccccn1	-31	nt	80	90
O=C(NCCc1ccccc1)c1cnn(-c2ccccc2)c1-n1cccc1	nt	102	105	79
CNC(=O)C1CCC(Cn2c(=O)c3sccc3n(CC(=O)Nc3ccccc3)c2=O)CC1 (stereo unspecified)	nt	98	85	86
COCCNC(=O)c1ccc2c(=O)n(CCOC)c(SCC(=O)c3c[nH]c4ccccc34)nc2c1	nt	120	78	86
CCOc1cc(/C=C2/C(=O)NC(=O)N(c3ccc(Br)c(C)c3)C2=O)ccc1OCC(=O)O	-7	98	nt	nt
CC(C)(C)c1ccc(-c2ncon2)cc1Cn1nnc(-c2cccc(C(F)(F)F)c2)n1	-6	102	94	99
N#Cc1ccsc1NC(=O)CSc1nnc(NC2CC2)s1	-43	nt	69	47
Cc1ccc(NC(=O)CC(C)CC(=O)O)cc1 (stereo unspecified)	-23	104	100	92
Cc1ccc(S(=O)(=O)CC(C)(O)CS(=O)(=O)c2ccc(C)cc2)cc1	3	103	110	66
CCCCN1C(=O)C(O)(CC(=O)c2ccc(C(C)(C)C)cc2)c2ccccc21 (stereo unspecified)	11	104	117	97
CCC(=O)N(C1=NCCC(=O)S1)c1ccc(C(C)(C)C)cc1	1	107	111	78

(list continues)
SMILES	HCMV UL50-53 inh	GIV Gai3 FP	Sa growth inh	Sa growth inh second temp
CC(C)CNC(=S)NCc1ccco1	-24	110	90	87
Cn1nc(C(=O)Nc2cccc(C(F)(F)F)c2)c2c1-c1ccccc1S(=O)(=O)C2	-1	99	102	107
Cc1[nH]c2ccccc2c1C(=O)CN(C)C1CCCCC1	-24	111	106	99
O=C(OCc1cc(=O)oc2cc3c(cc12)CCC3)c1ccc(-n2cnnn2)cc1	-9	nt	87	78
CCCn1c(=O)c2ccc(Cl)cc2n2c(=O)n(CC(=O)Nc3ccc(Cl)cc3)nc12	-17	101	nt	nt
COc1ccc(C(=O)COC(=O)C(Cc2ccccc2)N2C(=O)C3C4C=CC(C4)C3C2=O)cc1 (stereo unspecified)	0	113	nt	nt
CCN(CC(=O)Nc1ccc2c(c1)OCCO2)C(=O)c1c(-c2ccccc2)noc1C	-19	nt	85	82
CS(=O)(=O)N1CCC(N2CCN(Cc3ccc(F)cc3)C(=O)C2=O)CC1	-9	104&97	82	85
NS(=O)(=O)c1ccc(CCNC(=O)Cc2csc(NC(=O)c3ccc(Cl)cc3)n2)cc1	-26	104	nt	nt
CCOc1ccc(NC(=O)c2oc3ccccc3c2NC(=O)COc2cccc(OC)c2)cc1	-15	104	111	84
COc1ccc(CSc2nc3ccncc3n2CC(=O)Nc2ccc(C)c(F)c2)cc1	-15	99	112	89
O=C(CSc1ccc2ccccc2c1)N1CCN(C(=O)c2ccco2)CC1	-33	nt	99	88

One compound at a time (already shown). Order of values: HCMV UL50-53 inh	GIV Gai3 FP	Sa growth inh	Sa growth inh second temp
Shown for O=C1CC(CSc2ccc(Cl)cc2)=NN1c1nc2ccccc2s1 = nt	103	105	34
Shown for O=C(OCc1cc(=O)oc2cc3c(cc12)CCC3)c1ccc(-n2cnnn2)cc1 = -9	nt	87	78
Shown for Cc1cc(Cl)ccc1N1C(=O)c2cc3ccsc3n2CC1(C)C(=O)NC1CCCC1 (stereo unspecified) = -39	106	nt	nt
Shown for CN(C)c1ccc(CNC(=O)CN2C(=O)CCn3nc(-c4cn(C)c5ccccc45)cc32)cc1 = nt	105	104	87
Shown for CCOc1ccc(NC(=O)c2oc3ccccc3c2NC(=O)COc2cccc(OC)c2)cc1 = -15	104	111	84

(cont.)
SMILES	HCMV UL50-53 inh	GIV Gai3 FP	Sa growth inh	Sa growth inh second temp
CC(C)CC(Nc1ncnc2c1oc1ccccc12)C(=O)O (stereo unspecified)	nt	97	95	74
COCCNC(=O)CCn1c(=O)c2cc(OC)c(OC)cc2n(CC(=O)Nc2ccc(F)c(Cl)c2)c1=O	-8	103	97	93
O=C(NC(=O)c1ccc(-c2ccc(Cl)cc2)s1)c1ccccc1	-51	101	99	83
CCOC(=O)c1cccc(NC(=O)c2cc(S(=O)(=O)N3CCCC3)cn2C)c1	-23	100	89	92
Cn1c(NCCN(CCO)CCCc2ccc([N+](=O)[O-])cc2)cc(=O)n(C)c1=O	-13&-117	102	98&93	86&85
Cc1cccc(CN2CC=C(C(=O)Nc3cccc(Cl)c3)CC2)c1	-9	101	nt	nt
Cc1[nH]c(=O)[nH]c(=O)c1CC(=O)O	-18	102	88	81
Cc1cccc(CCNC(=O)Cc2noc3ccccc23)c1	-23	100	93	84
Nn1c(C(O)c2ccccc2)n[nH]c1=S (stereo unspecified)	-4	nt	96	89
N#CCCn1c(SCc2cc3ccccc3nc2Cl)nc2ccccc21	-13	nt	113	90
Cc1n[nH]c(=O)n1Cn1c(C)n[nH]c1=O	-3	nt	86	91
CCn1c(CSc2nc(C)cc(=O)[nH]2)nc2ccccc21	-8	101	103	95
CC1CCC2(CC1)NC(=S)N(c1ccccc1)N2 (stereo unspecified)	nt	101	97	96

Compound activity: PubChem, ICCB-Longwood Screening Facility, Harvard Medical School

Rows were taken by chance (roughly 0.79% active in at least one column).
